# FGF22 binding: binders of recombinant human FGF22 by thermal shift | SYPRO orange fluorescence; percent of sucrose octasulfate shift, DMSO zero | Q9HCT0 | 340,000 compounds, 1.5% hits | calls only at 9.99 µM;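 active = melting point raised past a set limit in the mean and every replicate; three in four hits are not shown here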
# Target sequence (Q9HCT0 whole entry, looked up): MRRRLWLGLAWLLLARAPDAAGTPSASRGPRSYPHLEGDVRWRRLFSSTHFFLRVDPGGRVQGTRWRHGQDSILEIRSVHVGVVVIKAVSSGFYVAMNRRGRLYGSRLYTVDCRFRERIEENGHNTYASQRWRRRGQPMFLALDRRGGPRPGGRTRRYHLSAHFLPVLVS
# Calls only; i = inactive. Only part of the results is shown; the hit share may differ from the screen's.
# The first ten compounds, ahead of the listing:
SMILES,FGF22 binding
CCC(=O)Nc1ccc2c(c1)OC[C@H](C)N(Cc1cccnc1)C[C@H](C)[C@H](OC)CN(C)C2=O,i
CN(C)C(=O)c1cccc(-c2ccc(C3[C@@H]4CN(Cc5nccs5)C[C@H]3N4)cc2)c1 (stereo partly drawn),i
O=C(N[C@H]1C=C[C@H](CC(=O)N2CCOCC2)O[C@@H]1CO)c1ccc2c(c1)OCO2,i
CNC[C@@H]1Oc2ccc(NS(=O)(=O)c3cn(C)cn3)cc2C(=O)N([C@@H](C)CO)C[C@H]1C,i
O=C(C[C@H]1CC[C@@H]2[C@H](COC[C@H](O)CN2Cc2cccc(F)c2)O1)NCC1CCCCC1,i
C[C@@H]1CCCCO[C@H](CN(C)S(=O)(=O)c2cn(C)cn2)[C@@H](C)CN([C@@H](C)CO)C(=O)c2cc(NC(=O)Nc3cccc4ccccc34)ccc2O1,i
COc1cccc(NC(=O)N2C[C@H](O)COC[C@H]3O[C@@H](CC(=O)NC4Cc5ccccc5C4)CC[C@@H]32)c1,i
Cc1noc(C)c1NC(=O)N(C)C[C@@H]1OCCCC[C@@H](C)Oc2ccc(NS(=O)(=O)c3cccs3)cc2C(=O)N([C@@H](C)CO)C[C@H]1C,i
COCC(=O)Nc1ccc2c(c1)[C@H]1C[C@H](CC(=O)N3CCc4ccccc4C3)O[C@H](CO)[C@H]1O2,i
C[C@@H]1CN([C@@H](C)CO)C(=O)Cc2cc(NC(=O)CCC(F)(F)F)ccc2O[C@H]1CN(C)S(=O)(=O)c1cn(C)cn1,i

# The listing (from the top)
SMILES,FGF22 binding
CCC(=O)Nc1ccc2c(c1)OC[C@H](C)N(Cc1cccnc1)C[C@H](C)[C@H](OC)CN(C)C2=O,i
CN(C)C(=O)c1cccc(-c2ccc(C3[C@@H]4CN(Cc5nccs5)C[C@H]3N4)cc2)c1 (stereo partly drawn),i
O=C(N[C@H]1C=C[C@H](CC(=O)N2CCOCC2)O[C@@H]1CO)c1ccc2c(c1)OCO2,i
CNC[C@@H]1Oc2ccc(NS(=O)(=O)c3cn(C)cn3)cc2C(=O)N([C@@H](C)CO)C[C@H]1C,i
O=C(C[C@H]1CC[C@@H]2[C@H](COC[C@H](O)CN2Cc2cccc(F)c2)O1)NCC1CCCCC1,i
C[C@@H]1CCCCO[C@H](CN(C)S(=O)(=O)c2cn(C)cn2)[C@@H](C)CN([C@@H](C)CO)C(=O)c2cc(NC(=O)Nc3cccc4ccccc34)ccc2O1,i
COc1cccc(NC(=O)N2C[C@H](O)COC[C@H]3O[C@@H](CC(=O)NC4Cc5ccccc5C4)CC[C@@H]32)c1,i
Cc1noc(C)c1NC(=O)N(C)C[C@@H]1OCCCC[C@@H](C)Oc2ccc(NS(=O)(=O)c3cccs3)cc2C(=O)N([C@@H](C)CO)C[C@H]1C,i
COCC(=O)Nc1ccc2c(c1)[C@H]1C[C@H](CC(=O)N3CCc4ccccc4C3)O[C@H](CO)[C@H]1O2,i
C[C@@H]1CN([C@@H](C)CO)C(=O)Cc2cc(NC(=O)CCC(F)(F)F)ccc2O[C@H]1CN(C)S(=O)(=O)c1cn(C)cn1,i
Nc1[nH]c(C(=O)c2ccc(Br)cc2)c(-c2ccc(Cl)cc2[N+](=O)[O-])c1C(=O)NCCc1c[nH]c2ccccc12,i
O=C(Cc1cccnc1)N[C@@H]1CC[C@H](CCn2cc(-c3ccccc3F)nn2)O[C@H]1CO,i
COc1ccc(CN(C)C[C@H]2Oc3ccc(NC(=O)CCCN(C)C)cc3C(=O)N([C@H](C)CO)C[C@H]2C)cc1,i
C[C@H]1CN([C@@H](C)CO)C(=O)c2cc(-c3ccncc3)cnc2O[C@H]1CN(C)C(=O)CN1CCOCC1,i
C[C@@H]1CN([C@H](C)CO)C(=O)c2cc(NC(=O)Cc3ccccc3)ccc2O[C@@H]1CN(C)C(=O)Nc1ccc2c(c1)OCO2,i
O=C(Nc1ccc(F)cc1)N[C@H]1CC[C@@H](CCn2cc(C3(O)CCCC3)nn2)O[C@@H]1CO,i
O=C(CC1CC1)Nc1ccc2c(c1)[C@H]1C[C@H](CC(=O)N3CCOCC3)O[C@H](CO)[C@H]1O2,i
CO[C@@H]1CN(C)C(=O)c2cc(NS(=O)(=O)CC(F)(F)F)ccc2OC[C@H](C)N(CC2CCCCC2)C[C@@H]1C,i
C[C@@H]1CCCCO[C@H](CN(C)C)[C@@H](C)CN([C@H](C)CO)C(=O)c2cc(NC(=O)Nc3ccc(F)cc3)ccc2O1,i
O=C(C[C@@H]1CC[C@H](NC(=O)C2CCC2)[C@H](CO)O1)NCC1CC1,i
C[C@@H]1CN([C@@H](C)CO)S(=O)(=O)c2ccc(-c3ccccc3)cc2O[C@@H]1CN(C)CC1CC1,i
CCN(C[C@H]1N[C@@H](CO)[C@@H]1c1ccc(-c2cccc(F)c2)cc1)C(=O)COC,i
CCCC(=O)Nc1ccc2c(c1)C(=O)N(C)[C@H]1CC[C@H](CC(=O)Nc3ccc(C)cc3)O[C@@H]1CO2,i
CCCN(C)C[C@@H]1OCCCC[C@@H](C)Oc2ccc(NC(=O)Nc3ccc(C(F)(F)F)cc3)cc2C(=O)N([C@H](C)CO)C[C@@H]1C,i
O=C(C[C@H]1C[C@H]2c3cc(NC(=O)C4CCC4)ccc3O[C@H]2[C@@H](CO)O1)NCc1ccncc1,i
CO[C@@H]1CN(C)C(=O)c2cc(NC(C)=O)ccc2OC[C@@H](C)N(C(=O)Cc2cccnc2)C[C@H]1C,i
COCC(=O)Nc1ccc2c(c1)C(=O)N(C)C[C@@H](OC)[C@H](C)CN(C(=O)Cc1ccccn1)[C@H](C)CO2,i
COc1ccc2c3c(n(C)c2c1)[C@@H](CO)N(S(C)(=O)=O)CC31CCN(Cc2nccs2)CC1,i
C[C@@H]1CN([C@H](C)CO)C(=O)c2cc(C#CC3CCCCC3)cnc2O[C@@H]1CN(C)Cc1ccncc1,i
CCCNC(=O)Nc1ccc2c(c1)OC[C@@H](C)N(C)C[C@H](C)[C@H](OC)CN(C)C2=O,i
COc1ccc(S(=O)(=O)N(C)C[C@H]2Oc3c(NC(=O)c4ccc(-c5nccs5)cc4)cccc3C(=O)N([C@@H](C)CO)C[C@H]2C)cc1,i
CO[C@H]1CN(C)C(=O)c2ccc(NC(=O)C3CC3)cc2OC[C@H](C)N(C(=O)c2ccccc2)C[C@@H]1C,i
COc1ccc(CN(C)C[C@@H]2OCCCC[C@H](C)Oc3ccc(NC(=O)Nc4c(C)noc4C)cc3C(=O)N([C@@H](C)CO)C[C@@H]2C)cc1,i
O=C(Cc1ccncc1)NCC[C@H]1CC[C@H](NS(=O)(=O)c2ccccc2Cl)[C@H](CO)O1,i
C[C@@H]1CN([C@H](C)CO)C(=O)c2cc(C#CC(C)(C)O)cnc2O[C@H]1CN(C)Cc1ccccn1,i
COc1cc2c(c(OC)c1OC)[C@@]1(c3ccccc3)CCCCC[C@H]1[C@@H]2NC(=O)C(F)(F)F,i
CC(=O)Nc1ccc2c(c1)C(=O)N(C)[C@@H]1CC[C@@H](CC(=O)NCC3CCCCC3)O[C@H]1CO2,i
COc1cccc(NC(=O)N(C)C[C@@H]2OCc3ccccc3-c3c(n(C)c4ccccc34)C(=O)N([C@@H](C)CO)C[C@@H]2C)c1,i
C[C@@H]1CCCCO[C@@H](CN(C)CC2CCCCC2)[C@@H](C)CN([C@@H](C)CO)C(=O)c2cc(NC(=O)Cc3ccccc3)ccc2O1,i
O=C1CSC(c2ccccc2)N1c1cccc(Cl)c1 (stereo not drawn),i
COc1ccc(S(=O)(=O)N(C)C[C@H]2Oc3c(NC(=O)Nc4ccc5c(c4)OCO5)cccc3C(=O)N([C@H](C)CO)C[C@H]2C)cc1,i
C[C@H]1CN([C@@H](C)CO)C(=O)c2cc(NS(=O)(=O)c3cccs3)ccc2O[C@H]1CN(C)Cc1ccc(C(=O)O)cc1,i
C[C@H](CO)N1C[C@H](C)[C@H](CN(C)Cc2ccncc2)Oc2ncc(C#CCN(C)C)cc2C1=O,i
CN1C(=O)c2cc(NC(=O)Cc3cccs3)ccc2OC[C@H]2O[C@@H](CC(=O)O)CC[C@H]21,i
CN1c2ccc(-c3cccc(C#N)c3)cc2[C@H]2[C@H](CCN2C(=O)NC2CCCCC2)[C@H]1CO,i
CO[C@@H]1CN(C)C(=O)c2cc(NS(C)(=O)=O)ccc2OC[C@H](C)N(CC2CC2)C[C@H]1C,i
O=C(c1cccc(F)c1)N1C[C@@H]2[C@H](c3ccccc31)[C@@H](CO)N2C(=O)c1cccc(F)c1,i
CC(C)CC#Cc1ccc2c(c1)O[C@H](CN(C)Cc1cccc(F)c1)[C@H](C)CN([C@@H](C)CO)S2(=O)=O,i
C[C@@H]1CN([C@@H](C)CO)C(=O)c2cccc(NC(=O)c3nc4ccccc4s3)c2O[C@@H]1CN(C)Cc1ccc(-c2ccccc2)cc1,i
O=C(Cc1cccnc1)N1CC(=O)N2[C@@H](CO)[C@H](c3ccc(C#CC4CCCCC4)cc3)[C@@H]2C1,i
C[C@H]1CN([C@@H](C)CO)C(=O)c2cccc(NS(C)(=O)=O)c2O[C@@H]1CN(C)Cc1ccc2c(c1)OCO2,i
CCCNC(=O)N[C@H]1CC[C@H](CCn2cc(C3CCCC3)nn2)O[C@@H]1CO,i
O=C(C[C@@H]1CC[C@H](NC(=O)Nc2ccc(C(F)(F)F)cc2)[C@H](CO)O1)NCc1ccccn1,i
CC(C)NC(=O)N(C)C[C@H]1Oc2ccc(NC(=O)Nc3ccc(F)cc3)cc2C(=O)N([C@H](C)CO)C[C@H]1C,i
CC(C)NC(=O)N(C)C[C@H]1Oc2c(NC(=O)c3ccncc3)cccc2C(=O)N([C@H](C)CO)C[C@H]1C,i
O=C(C[C@@H]1C[C@H]2c3cc(NC(=O)C4CCOCC4)ccc3O[C@H]2[C@@H](CO)O1)NC1CCCC1,i
O=C(O)C[C@H]1CC[C@@H]2[C@H](COC[C@@H](O)CN2S(=O)(=O)c2ccc(Oc3ccccc3)cc2)O1,i
COc1ccc(NC(=O)Nc2ccc3c(c2)C(=O)N([C@@H](C)CO)C[C@@H](C)[C@H](CN(C)C(=O)Nc2cccc4ccccc24)OCCCC[C@@H](C)O3)cc1,i
COCC(=O)N1[C@H](C(=O)NCc2ccccc2F)[C@@H](CO)[C@@H]2Cn3c(cccc3=O)[C@@H]21,i
C/C=C/c1cnc2c(c1)C(=O)N([C@H](C)CO)C[C@@H](C)[C@@H](CN(C)C(=O)c1cccc(F)c1)O2,i

# (listing goes on)
SMILES,FGF22 binding
C[C@H]1CN([C@@H](C)CO)C(=O)c2cccc(NC(=O)C3CC3)c2O[C@@H]1CN(C)C(=O)Nc1cccc2ccccc12,i
O=C(C[C@H]1C[C@H]2c3cc(NC(=O)C4CCOCC4)ccc3O[C@H]2[C@@H](CO)O1)NCCc1ccccc1,i
C[C@@H]1CN([C@H](C)CO)S(=O)(=O)c2ccc(C#Cc3ccncc3)cc2O[C@H]1CN(C)C,i
O=C(Nc1cccc(Cl)c1)N[C@@H]1CC[C@H](CCNC(=O)C2CC2)O[C@H]1CO,i
O=C(C1CCCC1)N1[C@H](CO)[C@@H]2c3ccccc3N(S(=O)(=O)c3ccc(F)cc3)C[C@@H]21,i
C[C@@H]1CN([C@@H](C)CO)S(=O)(=O)c2ccc(-c3cccc(F)c3)cc2O[C@@H]1CN(C)C,i
COCC(=O)N1C[C@H](C)[C@@H](OC)CN(C)C(=O)c2ccc(NS(C)(=O)=O)cc2OC[C@H]1C,i
CCC(=O)N1C[C@@H](O)COC[C@@H]2O[C@@H](CC(=O)N3CCCCC3)CC[C@H]21,i
COCC(=O)N1CC2(CN[C@H](CO)c3c2c2ccc(OC)cc2n3C)C1,i
O=C(C[C@H]1CC[C@H]2[C@@H](COC[C@@H](O)CN2C(=O)Nc2ccc(Cl)cc2)O1)NC1Cc2ccccc2C1,i
C[C@H](CO)N1C[C@H](C)[C@@H](CN(C)Cc2ccccc2)Oc2c(NC(=O)C3CCOCC3)cccc2C1=O,i
O=C(C[C@H]1CC[C@H]2[C@@H](COC[C@H](O)CN2Cc2cccc(C(F)(F)F)c2)O1)NCc1ccncc1,i
COc1cccc(S(=O)(=O)N2C[C@@H]3N[C@H](C2)C3c2ccc(-c3ccccc3F)cc2)c1 (stereo partly drawn),i
C[C@H]1CCCCO[C@@H](CN(C)C(=O)Cc2ccccc2)[C@@H](C)CN([C@@H](C)CO)C(=O)c2cc(NC(=O)c3ccccc3)ccc2O1,i
C[C@H](CO)N1C[C@H](C)[C@H](CN(C)C(=O)Nc2ccccc2)OCc2ccccc2-c2ccccc2C1=O,i
O=C(C[C@H]1C[C@H]2c3cc(NC(=O)C4CCC4)ccc3O[C@H]2[C@H](CO)O1)NC1CCCC1,i
COc1ccc(CN(C)C[C@@H]2Oc3c(NS(=O)(=O)c4cn(C)cn4)cccc3C(=O)N([C@H](C)CO)C[C@H]2C)cc1,i
COCC#Cc1ccc2c(c1)O[C@H](CN(C)C(=O)NC(C)C)[C@@H](C)CN([C@H](C)CO)S2(=O)=O,i
CCCC(=O)Nc1ccc2c(c1)OC[C@@H](C)N(Cc1cncnc1)C[C@H](C)[C@@H](OC)CN(C)C2=O,i
CCCC#Cc1ccc([C@H]2[C@H](CO)N3CCCCN(Cc4cncnc4)C[C@@H]23)cc1,i
CC(C)CC#Cc1ccc2c(c1)O[C@@H](CN(C)C(=O)Cc1ccccn1)[C@@H](C)CN([C@H](C)CO)S2(=O)=O,i
CO[C@@H]1CN(C)C(=O)c2ccc(NC(=O)Nc3ccc(Cl)cc3)cc2OC[C@@H](C)N(C(=O)Nc2c(C)noc2C)C[C@@H]1C,i
C[C@H]1CN([C@@H](C)CO)C(=O)c2cc(-c3ccncc3)cnc2O[C@@H]1CN(C)Cc1cccnc1,i
C[C@H]1CN([C@@H](C)CO)C(=O)Cc2cc(NC(=O)C3CC3)ccc2O[C@H]1CN(C)Cc1ccc2c(c1)OCO2,i
O=C(Cc1ccccc1)N[C@@H]1C=C[C@H](CC(=O)N2CCCCC2)O[C@H]1CO,i
C[C@H]1CN([C@@H](C)CO)C(=O)Cc2cc(NC(=O)CCC(F)(F)F)ccc2O[C@H]1CN(C)C(=O)Nc1cccc2ccccc12,i
